YB-1 expr inh: YB-1 expression inhibition; delta delta Cp (YB-1 minus CDIP) (concentration not given with the values); 30,000 compounds, 0.37% hits; U2OS, qRT-PCR YB-1 vs CDIP delta delta Cp, 16 h; hits give high values; zero = DMSO, each unit about twofold;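 active means delta delta Cp rounded down to an integer at or above 3, about 3 SD of DMSO wells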;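 further: higher means less YB-1 transcript or more CDIP transcript relative to DMSO; stock transfer was 100 nL into about 100 µL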
Hedgehog inh: blocks Sonic Hedgehog signaling; Shh-LIGHT2 Gli-luciferase reporter, 30 h; AID 2313; 22,000 compounds, 2.1% hits; inhibition, % (no concentration beside the values);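 active means replicate mean of 65% or more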;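 further: pathway switched on by Shh-conditioned medium diluted 1 in 25 in low serum; 100 nL library stock added to about 40 µL; 0% = median of neutral wells and 100% = positive control level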
MITF inh: inhibitors of MITF; TRPM1 promoter luciferase, luminescence, 24 h; inhibition, % (concentration not given with the values); 37,000 compounds, 0.28% hits; AID 2240;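 active means most replicates at 85% or more, or half of them and the mean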;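 further: human melanocyte line stably carrying TRPM1 promoter luciferase reporter; 0% = vehicle wells and 100% = a positive control; the first replicate is given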
PD-1 reverse act: reversal of PD-1 mediated T-cell inhibition; primary human CD4 T cells, PD-L1 beads, CellTiter-Glo 96 h; activation, % (no concentration beside the values); 29,000 tested, under 10 active; AID 2316;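 active means replicate mean of 50% or more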;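 further: 0% = median vehicle wells and 100% = positive control; 100 nL library stock added to about 50 µL; numbers are from one replicate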
* hit, by the source's call; · = not tested or not shown.

SMILES	YB-1 expr inh	Hedgehog inh	MITF inh	PD-1 reverse act
CNC[C@@H]1Oc2ccc(NC(=O)CCN3CCOCC3)cc2C(=O)N([C@@H](C)CO)C[C@@H]1C	-1	10	0	0.3
COc1ccc(NC(=O)CN2c3cccc4cccc(c34)S2(=O)=O)c(OC)c1	·	·	5	0.7
CC(C)NC(=O)Nc1cccc2c1O[C@H](CN(C)C(=O)Nc1ccc(F)cc1)[C@H](C)CN([C@@H](C)CO)C2=O	-0.4	-20	-11	0.8
CC(Sc1nc2ccccc2[nH]1)C(=O)Nc1cccc(Cl)c1 (stereo not drawn)	·	·	28	-6.1
C[C@@H]1CN([C@H](C)CO)C(=O)c2cc(NC(=O)Cn3cnnn3)ccc2O[C@H]1CN(C)Cc1ccc(C(=O)Nc2ccccc2N)cc1	0.006	·	-2	-0.6
C[C@H](CO)N1C[C@H](C)[C@H](CN(C)Cc2ccc(Cl)c(Cl)c2)Oc2c(NC(=O)Nc3ccccc3)cccc2C1=O	0.98	-5	45	-4.3
COC(=O)c1cc2ccccc2[nH]1	-0.59	2	9	0.2
CNC[C@H]1Oc2c(NC(=O)Nc3c(C)noc3C)cccc2C(=O)N([C@H](C)CO)C[C@H]1C	0.46	20	-7	·
Cc1ccc(-c2nnc(SCC(=O)Nc3ccccc3OC(F)F)o2)cc1	·	·	-25	-3.3
COc1ccc(OC)c(S(=O)(=O)N2CCC(C(=O)Nc3c(C)cc(C)cc3C)CC2)c1	·	·	-3	1.1
C[C@@H]1CCCCO[C@@H](CN(C)C(=O)Cc2ccccc2)[C@@H](C)CN([C@H](C)CO)C(=O)c2cc(NS(C)(=O)=O)ccc2O1	0.028	-37	-6	-0.9
C[C@@H]1CN([C@H](C)CO)C(=O)Cc2cc(NC(=O)CCN3CCOCC3)ccc2O[C@H]1CN(C)S(=O)(=O)c1ccccc1	0.19	4	-1	2.2
Cn1c(N2C(=O)c3cccc4cccc(c34)C2=O)nc2ccccc21	0.26	86*	-25	-0.4
c1ccc(Cn2ccc3ccccc32)cc1	0.048	·	13	-0.6
CNC[C@@H]1Oc2ccc(NC(=O)NC3CCCCC3)cc2C(=O)N([C@@H](C)CO)C[C@H]1C	0.31	-1	-5	1.6
C[C@H](CO)N1C[C@H](C)[C@H](CN(C)S(=O)(=O)c2ccc(Cl)cc2)Oc2c(NC(=O)C3CC3)cccc2C1=O	0.13	98*	6	-2.5
CCOc1ccc(S(=O)(=O)NCC(=O)O)cc1	·	·	-10	1.7
CCOC(=O)c1c(NC(=O)C2COc3ccccc3O2)sc(C)c1C (stereo not drawn)	·	·	-38	-1.8
COc1ccc(NC(=O)Nc2ccc3c(c2)C(=O)N([C@H](C)CO)C[C@H](C)[C@H](CN(C)Cc2ccccc2)O3)cc1	-0.28	·	6	·
C[C@@H]1CN([C@@H](C)CO)C(=O)c2cccc(NC(=O)Nc3ccc(C(F)(F)F)cc3)c2O[C@H]1CN(C)S(=O)(=O)c1cn(C)cn1	1	-39	-8	-1.8
S=c1[nH]nc(CSc2nc(-c3ccccc3)cn2-c2ccccc2)n1-c1ccccc1	-0.057	10	1	0.0
C[C@H]1CN([C@@H](C)CO)C(=O)c2cccc(NC(=O)Nc3ccc(C(F)(F)F)cc3)c2O[C@H]1CN(C)C(=O)Nc1ccccc1	0.26	-15	17	-8.1
Cc1ccc(S(=O)(=O)N(C)C[C@@H]2OCCCC[C@@H](C)Oc3ccc(NC(=O)C4CCCCC4)cc3C(=O)N([C@H](C)CO)C[C@@H]2C)cc1	-0.24	11	13	·
CCOC(=O)c1sc(/S(C)=N/S(=O)(=O)c2cccc(Cl)c2)c2c1CCC=C2 (stereo not drawn)	0.13	9	9	-0.6
Cc1cc(C(=O)Nc2cccc3c2O[C@H](CN(C)S(=O)(=O)c2ccc(F)cc2)[C@@H](C)CN([C@H](C)CO)C3=O)n(C)n1	-0.27	3	-2	1.6

Full records, looked up by structure. Order of values: YB-1 expr inh	Hedgehog inh	MITF inh	PD-1 reverse act
Listed for S=c1[nH]nc(CSc2nc(-c3ccccc3)cn2-c2ccccc2)n1-c1ccccc1 = -0.057	10	1	0.0
Listed for C[C@@H]1CCCCO[C@@H](CN(C)C(=O)Cc2ccccc2)[C@@H](C)CN([C@H](C)CO)C(=O)c2cc(NS(C)(=O)=O)ccc2O1 = 0.028	-37	-6	-0.9
Listed for C[C@@H]1CN([C@H](C)CO)C(=O)c2cc(NC(=O)Cn3cnnn3)ccc2O[C@H]1CN(C)Cc1ccc(C(=O)Nc2ccccc2N)cc1 = 0.006	·	-2	-0.6

Given as a markdown table: entries from further up
| Structure | YB-1 expr inh | Hedgehog inh | MITF inh | PD-1 reverse act |
| --- | --- | --- | --- | --- |
| CNC[C@@H]1Oc2ccc(NC(=O)NC3CCCCC3)cc2C(=O)N([C@@H](C)CO)C[C@H]1C | 0.31 | -1 | -5 | 1.6 |
| COc1ccc(NC(=O)Nc2ccc3c(c2)C(=O)N([C@H](C)CO)C[C@H](C)[C@H](CN(C)Cc2ccccc2)O3)cc1 | -0.28 | · | 6 | · |

Next section
SMILES	YB-1 expr inh	Hedgehog inh	MITF inh	PD-1 reverse act
CCOC(=O)c1c(COC(C)=O)n(C)c2cc(Br)c(OC)cc12	-0.51	·	20	-1.1
COc1ccc(CN(C)C[C@@H]2Oc3c(NS(=O)(=O)c4ccc(F)cc4)cccc3C(=O)N([C@H](C)CO)C[C@@H]2C)cc1	-0.055	-16	4	·
C[C@@H]1CN([C@@H](C)CO)C(=O)c2cc(NS(C)(=O)=O)ccc2O[C@H]1CN(C)Cc1ccc(C(=O)Nc2ccccc2N)cc1	-0.28	·	-9	0.8
O=C(O)CC(C(=O)OC1CCCCC1)N1CCOCC1 (stereo not drawn)	·	·	-10	2.7
CC1=C(C(=O)Nc2ccccc2C)C(c2cccnc2)n2nc(SCc3ccccc3)nc2N1 (stereo not drawn)	·	·	-2	-0.5
CC(C)NC(=O)N(C)C[C@@H]1Oc2ccc(NS(C)(=O)=O)cc2CC(=O)N([C@H](C)CO)C[C@H]1C	0.2	27	0	-0.6
C[C@@H]1CN([C@H](C)CO)C(=O)Cc2cc(NC(=O)Cc3ccccc3)ccc2O[C@@H]1CN(C)C	-0.065	15	7	0.4
CCC1(C)C(=O)C=C2C(=COC(C)=C2C)C1O (stereo not drawn)	-0.3	-29	-3	0.7
O=C(NCc1ccccc1)c1ccccc1	0.031	-2	-24	0.5
Cc1noc(C)c1NC(=O)Nc1ccc2c(c1)CC(=O)N([C@@H](C)CO)C[C@H](C)[C@@H](CN(C)S(=O)(=O)c1cccs1)O2	0.12	46	-8	1.2
COC(=O)c1cc(OC)c(OC)cc1NC(=O)COc1ccc(Cl)cc1Cl	·	·	-1	-4.1
CCN(CC(=O)Nc1ccccc1OC)S(=O)(=O)c1ccc(C)cc1	·	·	-10	0.2
CNC[C@@H]1OCCCC[C@@H](C)Oc2ccc(NC(=O)Nc3cccc4ccccc34)cc2C(=O)N([C@H](C)CO)C[C@@H]1C	-0.24	1	-1	0.5
Cc1ccc(OCC(=O)Nc2cc(-c3nc4cc(C)c(C)cc4o3)ccc2C)cc1	·	·	6	4.2
CC(C)NC(=O)NCc1c(F)cccc1Cl	0.17	-8	-2	-1.0
C[C@H](CO)N1C[C@H](C)[C@H](CN(C)C(=O)Nc2ccc(F)cc2)Oc2c(NC(=O)c3cnccn3)cccc2C1=O	-0.07	-3	-2	0.2
COC(=O)c1sc(SC)c(C#N)c1-c1cccc(Cl)c1	-0.074	22	1	-0.9
COc1ccc(S(=O)(=O)N(C)C[C@H]2Oc3ccc(NC(=O)Nc4ccc(C(F)(F)F)cc4)cc3CC(=O)N([C@@H](C)CO)C[C@H]2C)cc1	0.17	-2	19	-3.3
COc1ccc(S(=O)(=O)Nc2cccc3c2O[C@H](CN(C)S(=O)(=O)c2ccccc2)[C@@H](C)CN([C@@H](C)CO)C3=O)cc1	0.058	-19	-7	·
COc1cccc(C=C2C(=O)c3ccccc3C2=O)c1OC(C)C	-0.41	6	9	-3.5
COc1ccc(S(=O)(=O)N(C)C[C@@H]2Oc3ccc(NC(=O)CCC(F)(F)F)cc3C(=O)N([C@H](C)CO)C[C@H]2C)cc1	-0.47	-3	-5	-0.4
O=C(Cn1ccc([N+](=O)[O-])n1)Nc1cccnc1	·	·	-1	4.0
COC(=O)c1c(NC(=O)Cn2cc([N+](=O)[O-])cn2)sc2c1CCCC2	·	·	-18	0.3
CNC[C@@H]1Oc2ccc(NC(=O)NC(C)C)cc2CC(=O)N([C@H](C)CO)C[C@@H]1C	-0.17	17	-6	-0.7
Cc1c(C#N)c(Sc2ccccc2NC(=O)c2ccccc2)nc2ccccc12	-0.32	46	2	-1.3

(list continues)
SMILES	YB-1 expr inh	Hedgehog inh	MITF inh	PD-1 reverse act
Cc1sc2nc3n(c(=O)c2c1C)N=C(c1ccc(F)cc1)CS3	-0.086	-53	-41	0.3
C[C@H](CO)N1C[C@H](C)[C@H](CN(C)S(=O)(=O)c2ccc(F)cc2)Oc2ccc(NC(=O)Nc3ccc(C(F)(F)F)cc3)cc2CC1=O	0.4	56	68	-9.0
C[C@@H]1CN([C@H](C)CO)C(=O)c2cc(NC(=O)Cc3ccccc3)ccc2O[C@H]1CN(C)C(=O)Nc1ccccc1	-0.015	·	-14	0.8
C[C@@H]1CN([C@H](C)CO)C(=O)c2cc(NC(=O)CCN3CCOCC3)ccc2O[C@H]1CN(C)S(=O)(=O)c1ccc(F)cc1	0.03	·	-10	1.1
C[C@H](CO)N1C[C@H](C)[C@@H](CN(C)Cc2ccncc2)Oc2ccc(NC(=O)Nc3ccccc3)cc2C1=O	0.076	16	0	0.9
C[C@H](CO)N1C[C@H](C)[C@@H](CN(C)C(=O)Nc2ccc(C(F)(F)F)cc2)Oc2ccc(NS(C)(=O)=O)cc2C1=O	-0.23	-20	-5	0.7
COCC(C)NS(=O)(=O)c1ccc(NC(C)=O)cc1 (stereo not drawn)	·	·	-29	1.1
C[C@H]1CN([C@@H](C)CO)C(=O)c2cccc(NC(=O)Nc3ccc(C(F)(F)F)cc3)c2O[C@H]1CN(C)Cc1ccc(C(F)(F)F)cc1	-0.16	-37	30	-6.1
C[C@@H]1CN([C@@H](C)CO)C(=O)c2cc(NC(=O)C3CC3)ccc2O[C@H]1CN(C)Cc1ccccc1	0.34	·	-3	0.4
COc1cc2ccc(=O)oc2c(O)c1O	-0.15	-19	4	·
CC1(C)S[C@@H]2[C@H](NC(=O)[C@H](N)c3ccc(O)cc3)C(=O)N2[C@H]1C(=O)O	0.3	-87	12	·
COc1cc2c(cc1NC(=O)COC(C)=O)oc1ccccc12	·	·	-23	-0.4
CC(C)NC(=O)N(C)C[C@H]1Oc2ccc(NC(=O)Nc3ccccc3)cc2CC(=O)N([C@@H](C)CO)C[C@@H]1C	-1.2	·	-16	-0.9
c1coc(CCC2NCCn3cccc32)c1 (stereo not drawn)	0.022	3	-4	-3.9
CC(C)c1ccccc1OCC(=O)Nc1ccccc1C(N)=O	·	·	36	-7.0
CCOC(=O)c1ccccc1NC(=O)c1cc(Cl)ccc1NC(=O)c1ccc(OC)cc1	·	·	7	-0.6
C[C@H]1CN([C@@H](C)CO)C(=O)c2cccc(NS(=O)(=O)c3cccs3)c2O[C@H]1CN(C)Cc1ccncc1	-0.13	28	4	0.4
C[C@@H]1CN([C@H](C)CO)C(=O)Cc2cc(NC(=O)CCC(F)(F)F)ccc2O[C@H]1CN(C)C(=O)Nc1ccc(C(F)(F)F)cc1	-0.084	-18	-7	2.3
CNC[C@H]1Oc2c(NS(=O)(=O)c3ccccc3)cccc2C(=O)N([C@H](C)CO)C[C@H]1C	0.22	28	-12	2.9
O[C@]12CO[C@H](c3ccc4c(c3)OCO4)[C@H]1CO[C@@H]2c1ccc2c(c1)OCO2	-0.091	-8	1	1.7
COC(=O)CNC(=O)c1cn(-c2ccccc2)nc1-c1cccs1	·	·	-46	0.1
C[C@H](CO)N1C[C@H](C)[C@H](CN(C)S(C)(=O)=O)Oc2c(NS(=O)(=O)c3ccc(Cl)cc3)cccc2C1=O	-0.38	-86	-3	2.7
C[C@H]1CN([C@@H](C)CO)C(=O)Cc2cc(NC(=O)Nc3ccccc3)ccc2O[C@H]1CN(C)CC1CCCCC1	-0.38	·	-38	0.2
Cc1noc(C)c1NC(=O)Nc1ccc2c(c1)C(=O)N([C@@H](C)CO)C[C@H](C)[C@@H](CN(C)S(=O)(=O)c1ccccc1)O2	-0.065	·	5	-0.8
Cc1noc(C)c1NC(=O)Nc1ccc2c(c1)C(=O)N([C@@H](C)CO)C[C@H](C)[C@H](CN(C)C(=O)Nc1ccc(C(F)(F)F)cc1)O2	-0.25	-25	-11	-0.2

New compounds follow
SMILES	YB-1 expr inh	Hedgehog inh	MITF inh	PD-1 reverse act
C[C@H](CO)N1C[C@H](C)[C@@H](CN(C)S(=O)(=O)c2cn(C)cn2)Oc2c(NC(=O)c3cnccn3)cccc2C1=O	0.087	34	-12	0.8
Cc1ccc(NC(=O)COc2ccccc2C)c([N+](=O)[O-])c1	·	·	-43	1.5
CCCn1nnc(NC(=O)COc2ccc(Cl)cc2C)n1	·	·	-44	0.5
OC(COc1ccc(F)cc1)(c1ccc(Cl)cc1)c1ccc(Cl)cc1	-0.37	75*	38	-4.2
C[C@@H]1CN([C@@H](C)CO)C(=O)c2cccc(NC(=O)c3ccncc3)c2O[C@@H]1CN(C)S(C)(=O)=O	0.021	-3	-19	1.1
CCN1CCN(c2c(Cl)cccc2NC(=O)COc2ccc(OC)cc2)CC1	·	·	-26	-3.0

Compound activity (PubChem)

A portion of the library; the hit share may differ from the screen's.
